Assay outcomes: PubChem BioAssay, Johns Hopkins Ion Channel Center
KCNQ2 block – KCNQ2 channel blockers in CHO-K1 cells – cell-based, FluxOR thallium flux, B-score, primary screen (AID 2156) | 20 min; active compounds read low; only compounds with negative scores are shown here; some inactives read as strong as hits | O88943 | 1.1% of 310,000 active | B-score at 10 µM;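 active = fluorescence ratio B-score at most minus 3 library SDs, with starting brightness B-score within 2 library SDs, cut at about -5.5 in these data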
Target sequence (O88943 whole entry, looked up): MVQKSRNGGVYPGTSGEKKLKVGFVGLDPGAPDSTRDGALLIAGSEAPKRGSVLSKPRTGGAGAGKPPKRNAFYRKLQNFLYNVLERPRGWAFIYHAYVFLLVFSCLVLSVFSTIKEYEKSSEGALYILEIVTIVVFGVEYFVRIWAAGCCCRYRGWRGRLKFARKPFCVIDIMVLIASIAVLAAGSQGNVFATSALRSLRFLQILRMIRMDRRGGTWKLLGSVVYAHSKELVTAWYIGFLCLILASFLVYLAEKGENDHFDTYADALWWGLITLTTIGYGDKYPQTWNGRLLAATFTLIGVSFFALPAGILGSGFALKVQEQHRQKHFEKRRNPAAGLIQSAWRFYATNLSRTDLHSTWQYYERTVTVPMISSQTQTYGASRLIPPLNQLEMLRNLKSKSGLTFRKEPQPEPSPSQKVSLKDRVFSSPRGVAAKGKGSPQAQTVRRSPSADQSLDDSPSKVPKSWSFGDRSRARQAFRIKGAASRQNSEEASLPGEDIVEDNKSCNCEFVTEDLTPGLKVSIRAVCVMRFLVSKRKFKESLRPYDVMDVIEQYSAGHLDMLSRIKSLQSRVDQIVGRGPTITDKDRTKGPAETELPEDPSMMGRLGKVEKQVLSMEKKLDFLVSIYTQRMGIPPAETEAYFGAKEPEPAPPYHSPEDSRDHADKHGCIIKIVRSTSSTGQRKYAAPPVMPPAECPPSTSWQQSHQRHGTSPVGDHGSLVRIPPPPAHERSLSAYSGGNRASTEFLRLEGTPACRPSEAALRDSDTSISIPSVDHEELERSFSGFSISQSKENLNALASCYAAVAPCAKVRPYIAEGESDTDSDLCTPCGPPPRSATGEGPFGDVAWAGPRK
KCNQ2 block baseline – also measured in KCNQ2 block; calls as there; B-score; measured here: initial fluorescence intensity artifact check;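 brightness before thallium and not channel activity; 0 = typical well and far values either way flag optical interference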
Numbers without * were called inactive; i = inactive. An excerpt (hit frequency here may not be typical).

item	KCNQ2 block baseline	KCNQ2 block	structure
1	-2.42	i	COc1cccc(NC(=O)CCC2CCN(C(=O)c3cccc(NC(C)=O)c3)CC2)c1
2	-1.41	i	Cc1ccc(/C=N/NC(=O)Cc2c(F)cccc2Cl)s1
3	2.42	i	COc1ccccc1-c1nc(SC)n[nH]1
4	-0.46	i	O=C(NCc1cccnc1)c1ccc(S(=O)(=O)N2CCCCC2)cc1
5	1.17	i	OCCNCC(O)Cn1ccc2ccccc21 (stereo not drawn)
6	1.9	i	NC(=O)CN1CCN(Cc2ccc3c(c2)OCO3)CC1
7	1.56	i	Cc1ccc(S(=O)(=O)N2CCCOC2CNC(=O)C(=O)NCc2ccccn2)cc1 (stereo not drawn)
8	-0.31	i	COc1cccc(N2CCN(c3c(C#N)c(C(F)(F)F)nn3C)CC2)c1
9	-0.91	i	CCOC(=O)c1c(NC(=O)CN(C)C2CCN(C)CC2)sc(C(=O)Nc2ccccc2)c1C
10	3.63	i	O=C(COC(=O)CNC(=O)c1ccc(-c2ccccc2)cc1)NCc1ccco1
11	1.5	i	CCOC(=O)/C(C#N)=C/c1c(N2CCN(c3ccccc3)CC2)nc2c(C)cccn2c1=O
12	1.16	i	Cc1cc(C)cc(C(=O)Nc2c3c(nn2C(C)(C)C)CS(=O)(=O)C3)c1
13	-0.21	i	CCOC(=O)C1CCCN(C(=O)c2cc(Nc3ccc(OC)c(OC)c3)nc3ccccc23)C1 (stereo not drawn)
14	-0.17	i	COc1ccccc1C(CNC(=O)c1cccc(NS(=O)(=O)c2ccc(C)c(F)c2)c1)N1CCCC1 (stereo not drawn)
15	0.85	i	COc1ccc(N(C(=O)c2snc(C(N)=O)c2N)C(C(=O)NC2CCCC2)c2ccco2)cc1OC (stereo not drawn)
16	-0.96	i	CCN(CCCCCCN)c1ccc2c(=O)[nH][nH]c(=O)c2c1
17	-0.04	i	CCOc1ccc(CCNC(=O)CCNC(=O)c2ccc(Br)cc2)cc1OCC
18	-0.34	i	Cc1ccc(C2C3=C(CC(C)(C)CC3=O)Nc3onc(C)c32)cc1 (stereo not drawn)
19	2.7	i	CCc1ccc(Nc2cc(C(=O)NCCCN3CCOCC3)c3ccccc3n2)cc1
20	0.59	i	CCc1nc2cccnc2n1-c1ccc(CC(=O)NC(C)CC)cc1 (stereo not drawn)
21	0.02	i	O=[N+]([O-])c1cccc(S(=O)(=O)N2CCCCC2)c1
22	1.86	i	O=C(CSc1nnc(NC(=O)c2ccco2)s1)Nc1ccc(F)cc1F
23	1.8	i	COc1cccc(CN2CCN(Cc3nc(C(C)C)cs3)CC2CCO)c1 (stereo not drawn)
24	0.1	i	CCCc1nc2ccc(NC(=O)c3cccs3)cc2c(=O)n1Cc1ccccc1Cl
25	-1.19	i	Cc1cc(Cl)ccc1OCC(=O)N/N=C1\CCCc2ccccc21

Some of these compounds in order of length of the SMILES, largest number first.
item	KCNQ2 block baseline	KCNQ2 block	structure
24	0.1	i	CCCc1nc2ccc(NC(=O)c3cccs3)cc2c(=O)n1Cc1ccccc1Cl
4	-0.46	i	O=C(NCc1cccnc1)c1ccc(S(=O)(=O)N2CCCCC2)cc1
2	-1.41	i	Cc1ccc(/C=N/NC(=O)Cc2c(F)cccc2Cl)s1

The results go on:
item	KCNQ2 block baseline	KCNQ2 block	structure
26	0.07	i	COc1cc(NC(=O)C2CC(=O)N(CCc3ccccc3)C2)cc(OC)c1 (stereo not drawn)
27	0.48	i	CC(C)(C)c1ccccc1OCC(O)CN1CCN(c2ccccn2)CC1 (stereo not drawn)
28	-0.62	i	CCOC(=O)CC(=O)CSc1nc2c(cc1C#N)CCCCC2
29	0.08	i	O=C1S/C(=C\C=C\c2ccco2)C(=O)N1c1ccc(O)cc1
30	-0.21	i	COc1ccc(NC(=O)Cc2ccccc2F)cn1
31	-1	i	COc1nnc(-c2ccc(N3CCOCC3)c(NC(=O)c3ccco3)c2)c2ccccc12
32	4.05	i	O=c1c2[nH]c3ccc(F)cc3c2ncn1CCCn1ccnc1
33	-0.98	i	CC(C)C[C@H](NC(=O)c1nc[nH]c1C(=O)N[C@@H](CC(C)C)C(=O)OC(C)(C)C)C(=O)OCc1ccccc1
34	-0.58	i	COc1ccc(S(=O)(=O)N(Cc2ccccc2)c2ccccc2C(=O)N2CCOCC2)cc1
35	-1.67	i	O=C(NC(Cc1ccc(F)cc1)C(=O)O)c1ccccc1 (stereo not drawn)
36	-1.46	i	CC(=O)c1ccc(NC(=O)C[n+]2cccc(C)c2)cc1
37	0.14	i	COc1ccc(Nc2ncnc3c2cnn3Cc2ccc(C)cc2)cc1
38	-0.72	i	CC1CCCN(C(=O)c2ccc3c(c2)C(=O)N(CCC2=CCCCC2)C3=O)C1 (stereo not drawn)
39	-0.17	i	Cc1cc(NC(=O)CSc2nnc(C(C)N(C)C)n2Cc2ccccc2)no1 (stereo not drawn)
40	0.02	i	COc1cccc(N/C(SCc2ccccc2F)=C(/C#N)C(=O)NCc2cccs2)c1
41	-1.24	i	CCOC(=O)N1CCC(NC(=O)CSCc2nc(-c3ccc(OC)cc3)oc2C)CC1
42	1.49	i	COc1ccc(C(C)=O)cc1CC(=O)Nc1ccccc1-c1ccccc1
43	-1.62	i	O=C(COc1ccc(S(=O)(=O)N2CCOCC2)cc1Cl)N1CCCC1
44	2.08	i	COc1ccc(S(=O)(=O)N(CC(=O)NC2CCCCC2)c2ccc(F)cc2)cc1
45	2.27	i	O=C(COC(=O)/C=C/c1ccccc1)NCCC1=CCCCC1
46	-0.43	i	O=C(CSc1nnc(-c2ccco2)o1)N1c2ccccc2CCc2ccccc21
47	1.91	i	COC(=O)c1ccc2c(c1)NC(=O)C(N1CCOCC1)S2 (stereo not drawn)
48	0.87	i	CC1=C(C(=O)Nc2ccc(F)cc2)C(c2ccncc2)C2=C(CCCC2=O)N1 (stereo not drawn)
49	-1.6	i	CCCC(C)C(=O)Nc1nc(C)c(-c2csc(Nc3cc(OC)ccc3OC)n2)s1 (stereo not drawn)
50	-0.07	i	O=C1c2cccc3cccc(c23)C(=O)N1CCc1ccccc1
51	-0.4	i	O=C(NCCc1ccccc1)c1cccc(S(=O)(=O)N2CCCCC2)c1
52	0.41	i	COc1ccc(CNC(=O)CN2CCN(C(c3ccccc3)c3ccccc3)CC2)cc1
53	1.17	i	O=C(COc1ccccc1F)N/N=C1\CCCc2ccccc21
54	0.62	i	COc1ccc2oc(C(=O)N(C)Cc3ccc(OC(F)F)cc3)c(C)c2c1
55	-1.13	i	CC(=O)N[C@@H](Cc1c[nH]c2ccccc12)C(=O)NCc1ccccc1
56	0.32	i	O=C1C(=O)N(C/C=C/c2ccccc2)c2ccccc21
57	1.15*	-6.6*	COc1ccc(C2CCCN2CC(O)COc2ccccc2C(C)C)cc1 (stereo not drawn)
58	0.28*	-8.31*	Cc1cc(NC2CCCCC2)nc(NCc2ccccc2)n1
59	-0.64	i	CCOC(=O)CN(C(=O)CSc1nnc(CNc2ccc(C)cc2C)n1CC)c1ccccc1
60	0.72*	-6.34*	O=C(CCc1nnc(-c2ccsc2)o1)NCc1ccccc1OC(F)(F)F
61	0.47	i	O=C(O)C1CCCN1c1ncccc1[N+](=O)[O-] (stereo not drawn)
62	-0.19	i	COc1ccccc1N1CCN(C(=O)CN2C(=O)c3ccccc3C2=O)CC1
63	1	i	Clc1ncccc1-c1nc2ccccc2n1Cc1ccccc1
64	0.13	i	Cc1cccc(NC(=O)C2c3ccccc3C(=O)N3CCc4ccccc4C23)n1 (stereo not drawn)
65	0.06	i	COc1ccc(CN2CCN(C(C)C)C(CCO)C2)cc1Cn1cccn1 (stereo not drawn)
66	0.73	i	COC(=O)C1=C(C)NC(=O)/C1=C\c1cc(C)n(-c2cccc(C)c2)c1C
67	0.05	i	N#CC(C#N)=Cc1ccc(OCC(=O)N2CCOCC2)cc1

Retrieved one by one from the list above (6):
item	KCNQ2 block baseline	KCNQ2 block	structure
63	1	i	Clc1ncccc1-c1nc2ccccc2n1Cc1ccccc1
67	0.05	i	N#CC(C#N)=Cc1ccc(OCC(=O)N2CCOCC2)cc1
62	-0.19	i	COc1ccccc1N1CCN(C(=O)CN2C(=O)c3ccccc3C2=O)CC1
52	0.41	i	COc1ccc(CNC(=O)CN2CCN(C(c3ccccc3)c3ccccc3)CC2)cc1
53	1.17	i	O=C(COc1ccccc1F)N/N=C1\CCCc2ccccc21
54	0.62	i	COc1ccc2oc(C(=O)N(C)Cc3ccc(OC(F)F)cc3)c(C)c2c1
